UCH37 DUB inh – inhibitors of human UCH37 deubiquitinase, primary screen, biochemical, Ub-AMC cleavage, fluorescence. inhibition, % (test concentration not listed). purified proteasome/UCH37. AID 588478, 2011. 330,000 compounds, 0.33% hits. Ubiquitin carboxyl-terminal hydrolase isozyme L5 (Homo sapiens), Q9Y5K5;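 active means mean of two replicates above 20%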;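 further: 0% = compound-free wells with enzyme and 100% = wells lacking proteasome; stock transfer was 100 nL into about 20 µL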
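Signal – fluorescence, ex 355 nm, em 460 nm · System – Proteasome-bound UCH37 · Input – 0.15 nM proteasome as dispensed · Timing – 30 min preincubation with enzyme, 25 min cleavage at room temperature · Read-out basis – percent inhibition of cleavage signal versus uninhibited and no-proteasome wells · Medium – Tris-HCl pH 7.4 with ATP-MgCl2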
E coli growth – E. coli growth inhibition, primary screen, OD600 | 330,000 compounds, 0.21% hits | OD600 absorbance (no concentration beside the values) | Escherichia coli growth, 23 h; hits give low values;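 active means OD600 absorbance below the run mean of sample wells minus 3.6 SD, in any replicate, cut at about 0.56 in these data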;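 further: stock transfer was 300 nL into about 60 µL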
HNF4A DNA FP – change in binding of human HNF4A to DNA, primary screen, biochemical, fluorescence polarization, FITC-DNA; 360,000 compounds, 0.3% hits; activity change, % at 10 µM; 1 h; AID 1224865, 2016; in the data active means activity change above about 30%, passing the limit was not always enough;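 further: controls were the assay level and a saturating level of protein; the project sought stronger binding though the title names inhibitors; some compounds called inactive have numbers as strong as hits; positive values seem to mean higher polarization but the record does not say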
Beta2AR agonist – beta2AR agonists driving receptor internalization, primary screen, cell-based, FAP fluorogen, flow cytometry | Beta-2 adrenergic receptor (Homo sapiens), P07550 | Am2.2-beta2AR cells; reference of the scale not given here | response, % (test concentration not listed) | 340,000 compounds, 0.43% hits;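 active means response above a set limit, near 3 SD of response in nonfluorescent compounds, cut at about 42% in these data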;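 further: stock transfer was 100 nL into about 11 µL; a reference agonist was the positive control; negative values mostly stem from fluorescent compounds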
Target sequence (P07550 whole entry, looked up): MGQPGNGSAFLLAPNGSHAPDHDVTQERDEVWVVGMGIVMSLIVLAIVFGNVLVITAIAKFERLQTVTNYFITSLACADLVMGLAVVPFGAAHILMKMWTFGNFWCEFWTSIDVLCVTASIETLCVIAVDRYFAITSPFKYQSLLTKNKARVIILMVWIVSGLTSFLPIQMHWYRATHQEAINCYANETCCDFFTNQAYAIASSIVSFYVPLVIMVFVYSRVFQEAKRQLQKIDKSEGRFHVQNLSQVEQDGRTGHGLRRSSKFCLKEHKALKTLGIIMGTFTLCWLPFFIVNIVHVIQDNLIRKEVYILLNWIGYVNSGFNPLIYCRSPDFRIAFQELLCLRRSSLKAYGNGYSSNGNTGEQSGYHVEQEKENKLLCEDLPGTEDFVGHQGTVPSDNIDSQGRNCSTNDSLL
ALR H2O2 inh – inhibitors of human ALR sulfhydryl oxidase, primary screen, biochemical, H2O2 detection, HRP-luminol luminescence, single point | FAD-linked sulfhydryl oxidase ALR (Homo sapiens), P55789 | purified ALR, DTT oxidation | inhibition, % (test concentration not listed) | 290,000 compounds, 3.8% hits | AID 485317, 2010;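 active means mean and each replicate at 75% or more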;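 further: stock transfer was 7.5 nL into about 7.5 µL; 0% = neutral wells and 100% = wells with inactivated enzyme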
Target sequence (P55789 whole entry, looked up): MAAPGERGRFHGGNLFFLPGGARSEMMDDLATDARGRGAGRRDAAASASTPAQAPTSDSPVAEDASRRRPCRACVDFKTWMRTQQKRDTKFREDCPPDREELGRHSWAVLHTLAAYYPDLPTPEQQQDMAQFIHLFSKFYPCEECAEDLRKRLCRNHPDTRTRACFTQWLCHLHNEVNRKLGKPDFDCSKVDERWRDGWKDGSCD
FGF22 binding – binders of human FGF22 protein, primary screen, FGF22 synaptogenesis inhibitor project, biophysical, thermal shift, single point; Fibroblast growth factor 22 (Homo sapiens), Q9HCT0; recombinant FGF22 thermal shift, SYPRO orange fluorescence; percent of sucrose octasulfate shift, DMSO zero; calls only at 9.99 µM; 340,000 compounds, 1.5% hits;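 active means melting point raised past a set limit in the mean and every replicate; three in four hits are not shown here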
Target sequence (Q9HCT0 whole entry, looked up): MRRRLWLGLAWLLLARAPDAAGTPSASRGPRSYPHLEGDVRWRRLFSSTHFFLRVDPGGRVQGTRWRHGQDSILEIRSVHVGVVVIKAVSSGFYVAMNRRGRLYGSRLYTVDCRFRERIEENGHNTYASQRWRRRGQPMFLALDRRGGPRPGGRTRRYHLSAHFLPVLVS
LANA-H2A inh – blockers of LANA interaction with H2A/H2B – biochemical, FP readout, HTS, primary screen; 320,000 compounds, 0.6% hits; cell-free LANA-H2A/H2B peptide, fluorescence polarization; Protein LANA1 (Human herpesvirus 8 type P (isolate GK18)), Q9QR71; AID 2629, 2010; inhibition, % (no concentration beside the values); in the data active means inhibition mostly above about 10%, no sharp cut-off; inactive means mostly below about 6.7%;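 further: stock transfer was 7.5 nL into about 10 µL; 0% = median of vehicle wells and 100% = median of positive control wells; one replicate is shown; the record names a cut of 25% in any replicate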
* = called active by the depositor; i = inactive; nt = no result given.

No.	SMILES	ALR H2O2 inh	Beta2AR agonist	UCH37 DUB inh	E coli growth	FGF22 binding	LANA-H2A inh	HNF4A DNA FP
1	COc1ccc(N2CCN(C(CNC(=O)c3ccc4c(c3)OCO4)c3cccnc3)CC2)cc1 (stereo unspecified)	96.7*	2.5	-2.3	0.695	nt	-1.5	-5.2
2	OC(CNC1CCCC1)COc1ccc(-c2ccccc2)cc1 (stereo unspecified)	nt	17.1	2.1	0.662	i	-3.8	-2.3
3	CC(=O)N1CC(C)Sc2ccc(S(=O)(=O)NCCc3ccc(C)cc3)cc21 (stereo unspecified)	-11.4	2.5	-0.4	0.653	i	-1.6	0.0
4	O=C(Nc1ccc(S(=O)(=O)N2CCCC2)cc1)c1cc(=O)c2ccccc2o1	4.8	0.7	-0.9	0.686	i	-0.9	0.4
5	CCCOc1ccc(Br)cc1/C=N/O	nt	-3.0	nt	nt	nt	-0.9	-2.9
6	O=C(NC1CCCCCC1)C1CCN(S(=O)(=O)c2c(Cl)cccc2Cl)CC1	4.7	2.0	-1.4	0.669	i	-7.6	-1.4
7	O=c1cc(COc2ncnc3c(Cl)cc(Cl)cc23)nc2sccn12	nt	-6.8	1.8	0.668	i	-3.9	1.9
8	Cc1ccccc1CNC(=O)CN(c1cccc([N+](=O)[O-])c1)S(C)(=O)=O	-7.7	-2.5	0.4	0.613	i	5.2	1.1
9	Cc1ccc(NC(=O)c2ccc(OC(=O)COc3ccc(Cl)cc3C)cc2)cc1	-6.7	10.0	3.9	0.675	i	5.6	1.9
10	Cc1cccc(OC(C)C(=O)Nc2nc(-c3ccncc3)cs2)c1 (stereo unspecified)	nt	0.3	2.2	0.746	i	nt	0.8
11	CCCCCNC(=O)C(C#N)c1nc2ccccc2nc1N1CCCC1 (stereo unspecified)	25.2	15.1	-2.0	0.721	nt	-23.5	16.5
12	COc1cccc(CNS(=O)(=O)c2ccc3c(c2)N(C(C)=O)CCS3)c1	-4.4	8.8	6.9	0.693	i	3.0	8.8
13	S=C(NCCSCc1ccc(Cl)c(Cl)c1)Nc1ccccc1	9.0	47.4*	-0.4	0.727	nt	-2.0	0.8
14	Cn1c(=O)c2c(nc(CN3CCN(C(=O)c4ccco4)CC3)n2Cc2ccccc2F)n(C)c1=O	-30.1	-13.0	1.5	0.672	i	2.4	3.2
15	CCCN(CC)c1ncnc2[nH]ncc12	nt	3.2	1.1	0.672	i	nt	0.1
16	O=C(COc1ccccc1Cl)Nc1nc(-c2ccncc2)cs1	-17.6	12.3	6.5	0.651	i	1.4	1.5
17	COc1ccc(NC(C)C(=O)N/N=C/c2cc(Br)ccc2OC)cc1 (stereo unspecified)	34.6	-5.7	nt	nt	i	1.5	3.6
18	O=C(COC(=O)c1ccccc1OCc1ccccc1Cl)NC1CCS(=O)(=O)C1 (stereo unspecified)	-0.6	-2.7	3.3	0.719	i	-3.3	3.1
19	COc1ccc(S(=O)(=O)N2CCN(C(c3ccccc3)c3ccccc3)CC2)cc1NC(C)=O	-2.8	4.1	3.3	0.734	i	1.1	0.6
20	CCCc1noc2c1/C(=N\O)CCC2	-3.3	1.5	nt	nt	nt	-3.6	1.5
21	COc1ccccc1C(C#N)N1N=C(C)CC1(C)C (stereo unspecified)	-15.2	6.1	-1.9	0.714	i	2.2	-0.1
22	CN(C)c1nc(=NCc2cccs2)ss1	nt	-11.5	nt	nt	i	nt	0.6
23	CCC(C)(C)C1CCc2nc3ccccc3c(C(=O)OC(C)C(=O)Nc3c(C)n(C)n(-c4ccccc4)c3=O)c2C1 (stereo unspecified)	nt	-5.5	0.8	0.677	i	-2.2	-3.8
24	CCOC(=O)c1c(C)n(C)c2ccc(O)c(CN3CCN(C)CC3)c12	31.4	2.2	0.9	0.693	nt	-1.6	0.5
25	C[C@H]1CN=C(N(C)C)N1CCc1ccc(F)cc1	-12.9	2.6	-1.9	nt	i	6.9	0.2
26	CN(C)/C=C/c1c(C#N)c(=O)ncn1Cc1ccccc1	-5.0	-1.4	12.5	0.734	nt	4.9	3.2
27	COc1ccc(/C=C/C(=O)O/N=C(\N)c2cccnc2)cc1OC	13.3	-1.4	-10.1	0.655	i	-4.5	1.5
28	COC(=O)C1=C(C)Nc2c(c(=O)n(C)c(=O)n2C)C1c1cccs1 (stereo unspecified)	22.7	0.0	-6.0	0.755	nt	-6.7	2.1
29	CCC(=O)N1CCc2cc(Br)cc(S(=O)(=O)NCCN3CCCCC3CC)c21 (stereo unspecified)	-3.0	-8.8	4.5	0.713	nt	-0.3	7.3
30	CC(=O)/C=C/n1c(=S)oc2ccccc21	35.8	nt	3.0	0.632	i	-427.5	nt
31	O=C(NN1C(=O)C2C(C1=O)C1C=CC2C12CC2)c1ccccc1 (stereo unspecified)	-0.1	-1.1	2.6	0.728	nt	-1.3	0.4
32	Cc1ccc(SCCC(=O)OCn2nnc3ccccc3c2=O)cc1	-11.1	3.7	1.3	0.719	i	-6.3	-2.4
33	O=C(CSc1nnc(-c2ccccc2O)o1)N1CCOCC1	nt	-3.6	4.6	0.662	i	nt	1.8
34	CC1SCC(NC(=O)c2cccc(Cl)c2)CS1 (stereo unspecified)	-15.1	-6.4	1.2	0.625	i	-3.6	-4.7
35	Cc1cc(NC(=O)CCC(=O)N(CC(=O)NCC2CCCO2)c2ccc(F)c(Cl)c2)no1 (stereo unspecified)	-4.4	-6.6	-0.3	0.616	i	-3.3	2.1
36	Cc1cc(NC(=O)Cn2nc([N+](=O)[O-])c(Br)c2C)no1	-4.5	-1.4	1.9	0.672	i	-0.8	1.7
37	O=C(COC(=O)c1cc(=O)[nH]c(=O)[nH]1)Nc1ccccc1F	-15.9	-1.1	1.3	0.726	i	-0.3	4.5
38	O=C(NCCC1CCCCN1S(=O)(=O)c1ccccc1)C(=O)NCc1ccccn1 (stereo unspecified)	-0.3	-2.7	0.3	0.709	i	1.7	-2.0
39	Cc1c(NC(=O)c2c(F)c(F)c(F)c(F)c2F)c(=O)n(-c2ccccc2)n1C	nt	5.5	2.3	0.754	nt	-1.5	2.6
40	CCN(CC(=O)Nc1ccc(OC)cc1)C(=O)c1ccc([N+](=O)[O-])cc1	-2.9	0.3	-0.8	0.662	i	-1.1	-9.8
41	COC(=O)Cc1cc(=O)n2[nH]c(C(F)(F)F)nc2n1	-0.3	2.0	3.0	0.666	nt	2.8	0.2
42	Cc1ccc(CNC(=O)CCNS(=O)(=O)c2ccc3c(c2)c(=O)n(C)c(=O)n3C)cc1	18.1	2.1	0.1	0.653	nt	-2.3	-1.6
43	CCOn1c(=O)c(=O)n(O)c2ccccc21	-20.0	11.1	11.3	0.673	i	-4.1	1.9
44	COc1cc(/C=N/NC(N)=S)ccc1OCc1ccc(C)cc1	nt	12.1	nt	nt	i	-3.4	2.5
45	Cc1cccc(C(=O)NC2CCN(C(=O)N3CCOCC3)CC2)c1	-2.0	4.7	0.7	0.717	nt	-3.7	0.7
46	COc1ccccc1Nc1nc(-c2sc(NC(=O)c3ccco3)nc2C)cs1	-1.2	2.5	-3.1	0.728	i	-1.0	14.0
47	O=C(CCCc1ccccc1)Nc1ccnn1C1CCN(Cc2ccc(CO)o2)CC1	-4.5	3.5	6.3	0.714	i	-4.5	1.0
48	CCCOc1ccc(/C=C2\SC(N)=NC2=O)cc1OC	-3.3	10.2	-1.7	0.66	i	3.5	7.8
49	Cc1ccccc1/C=C/c1nc2ccccc2c(=O)n1Cc1ccccc1	-1.9	3.7	-2.1	0.74	nt	2.6	1.9
50	CC(=O)N(c1ccccc1)C(C)c1nc(C#N)c(C#N)nc1C (stereo unspecified)	-1.5	2.5	-1.3	0.672	i	8.7	-1.8

(more compounds)
No.	SMILES	ALR H2O2 inh	Beta2AR agonist	UCH37 DUB inh	E coli growth	FGF22 binding	LANA-H2A inh	HNF4A DNA FP
51	CC1Cc2ccccc2N1C(=O)COc1ccc2c(c1)OCO2 (stereo unspecified)	-9.1	-7.3	0.4	0.679	i	14.7	-3.0
52	CC(C)N1C2OC(C3OC4C(O3)N(C(C)C)S(=O)(=O)N4C(C)C)OC2N(C(C)C)S1(=O)=O (stereo unspecified)	-10.0	-3.2	3.0	0.74	nt	3.5	-0.5
53	COc1cccc(CN(C)CC(=O)Nc2cccc(S(N)(=O)=O)c2)c1OC	2.5	3.5	0.5	0.681	i	-1.4	0.1
54	CC(=O)c1c(C(C)=O)c(C)n(NC(=O)c2cccnc2)c1C	0.4	6.5	3.6	0.64	nt	-2.8	4.1
55	Cc1ccc(C)c(S(=O)(=O)N2CCN(C(=O)CCc3c[nH]c4ccccc34)CC2)c1	0.8	-3.1	2.9	0.686	i	3.5	-2.3
56	COc1cccc(NC(=O)CN2C(=O)CSc3ccc(S(=O)(=O)N4CCC(C)CC4)cc32)c1	-3.0	6.2	6.2	0.665	i	-3.3	-0.7
57	CC(=O)N1CCC(C(=O)N2CCN(S(=O)(=O)c3ccc(Cl)s3)CC2)CC1	3.8	-1.2	1.4	0.692	i	2.8	2.1
58	Cc1cccc(C(=O)NNC(=O)/C=C/C(=O)O)c1	-3.5	-5.4	0.5	0.706	i	3.1	-1.8
59	O=C(NNC(=O)c1ccc([N+](=O)[O-])cc1)c1ccc(Br)cc1	8.4	-3.8	3.3	0.639	i	-4.1	2.5
60	CCOc1ccc(OCC)c(N=c2oc3c(C)ncc(CO)c3cc2C(N)=O)c1	-18.3	-11.2	3.2	0.703	nt	1.7	-2.4

An excerpt from above in order of molecular weight, smallest number first.
No.	SMILES	ALR H2O2 inh	Beta2AR agonist	UCH37 DUB inh	E coli growth	FGF22 binding	LANA-H2A inh	HNF4A DNA FP
30	CC(=O)/C=C/n1c(=S)oc2ccccc21	35.8	nt	3.0	0.632	i	-427.5	nt
49	Cc1ccccc1/C=C/c1nc2ccccc2c(=O)n1Cc1ccccc1	-1.9	3.7	-2.1	0.74	nt	2.6	1.9
38	O=C(NCCC1CCCCN1S(=O)(=O)c1ccccc1)C(=O)NCc1ccccn1 (stereo unspecified)	-0.3	-2.7	0.3	0.709	i	1.7	-2.0

The list continues:
No.	SMILES	ALR H2O2 inh	Beta2AR agonist	UCH37 DUB inh	E coli growth	FGF22 binding	LANA-H2A inh	HNF4A DNA FP
61	CCN(CC)c1ccc2cc(C(=O)NNC(=O)c3ccc(S(=O)(=O)N4CCCCC4)cc3)c(=O)oc2c1	-3.2	10.0	-24.2	0.681	nt	-3.0	14.1
62	CCCCNC(=O)C1CCN(S(=O)(=O)c2c(C)noc2/C=C\c2ccc(OC)cc2)CC1	-9.5	2.9	-8.8	0.746	i	0.6	4.5
63	O=C(O)c1ccc(N/N=C/C2=C(N3CCOCC3)C(=C\c3ccccc3)/CC2)cc1	97.0*	-38.9	nt	nt	i	5.3	35.1*
64	COC(=O)C1=C(C)N(CCCC(=O)O)C(=O)NC1c1ccc(Br)cc1 (stereo unspecified)	-5.5	2.4	0.2	0.749	i	4.3	6.2

Source: PubChem BioAssay

An excerpt (hit frequency here may not be typical).
